Six1-Eya2 inh = blocks human Six1 binding to Eya2; 360,000 compounds, 0.56% hits; activity change, % (no concentration beside the values); Q15475+O00167; AID 651725; AlphaScreen GST-Six1/His-Eya2 binding, biochemical; hits give low values; control for the full effect not named in the record; in the data active = activity change below about -65%; inconclusive = about -30% to -65%; inactive = above about -30%; also: % is scaled to controls: 0 for no effect and ±100 for the full control effect
Target sequence (O00167 whole entry, looked up): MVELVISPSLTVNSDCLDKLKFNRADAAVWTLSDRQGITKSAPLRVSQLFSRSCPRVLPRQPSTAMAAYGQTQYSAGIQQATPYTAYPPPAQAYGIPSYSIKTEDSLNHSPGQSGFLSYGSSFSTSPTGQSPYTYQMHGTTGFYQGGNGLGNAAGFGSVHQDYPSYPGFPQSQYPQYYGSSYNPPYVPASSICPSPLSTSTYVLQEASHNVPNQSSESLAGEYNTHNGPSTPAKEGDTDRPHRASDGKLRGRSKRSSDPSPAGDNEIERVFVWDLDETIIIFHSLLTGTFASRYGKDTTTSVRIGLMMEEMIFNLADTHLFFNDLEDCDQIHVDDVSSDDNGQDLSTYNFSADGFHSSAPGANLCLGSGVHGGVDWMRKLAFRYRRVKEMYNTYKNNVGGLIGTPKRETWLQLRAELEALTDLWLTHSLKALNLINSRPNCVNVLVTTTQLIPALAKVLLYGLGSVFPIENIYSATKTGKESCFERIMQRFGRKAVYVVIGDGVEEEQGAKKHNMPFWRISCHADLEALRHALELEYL
Target sequence (Q15475 whole entry, looked up): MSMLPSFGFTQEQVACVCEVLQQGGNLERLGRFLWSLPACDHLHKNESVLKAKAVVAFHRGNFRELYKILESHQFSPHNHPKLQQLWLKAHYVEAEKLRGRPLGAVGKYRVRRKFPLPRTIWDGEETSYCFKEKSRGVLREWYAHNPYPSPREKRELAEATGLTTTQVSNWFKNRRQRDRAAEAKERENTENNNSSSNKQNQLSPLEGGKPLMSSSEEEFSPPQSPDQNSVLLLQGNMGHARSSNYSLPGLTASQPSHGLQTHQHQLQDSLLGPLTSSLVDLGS
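Homogeneous AlphaScreen proximity assay pairing GST-Six1 with His-tagged Eya2 (added as 5X mix: 250 nM and 500 nM) in 50 mM Tris pH 8.0, 300 mM NaCl, 1 mM TCEP. Glutathione donor and nickel acceptor beads; 1 h, 37 °C, dark.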
PINK1 modulator = modulators of PINK1 expression; Potency, µM (series often up to 76.6 µM), without a hit: at the top dose activation (PINK1 increase), hits mostly activators; PINK1 immunofluorescence, high-content cytometry, 24 h; 410,000 compounds, 0.2% hits; active = well fitted activation curve with a large enough effect; inconclusive = small, poorly fitted or top-dose-only effect; inactive = flat fitted curve, though single readings scatter; cell line not stated here;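 also: potency is read from the fitted curve at half-maximal effect; % of control where 0% means no effect; nearly all actives have a fitted effect of over 65% in size; a mitochondrial uncoupler was the plate control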
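A stable cell line was treated with compounds at 5 concentrations for 24 hours, with CCCP as control. PINK1 levels and mitochondrial localization were measured by immunofluorescence with mitochondrial, cell and nuclear markers after fixation, read by laser-scanning cytometry.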
D2 agonist = agonists of human D2 dopamine receptor (beta-arrestin); P14416; DiscoveRx PathHunter D2 beta-arrestin, luminescence, 90 min; 100% = 57 uM dopamine signal; 360,000 compounds, 0.084% hits; activation, % (test concentration not listed); in the data active = activation above about 40%; inconclusive = about 15% to 40%; inactive = below about 15%; also: compound concentration not given in the record; the text of the record calls up to 30% inactive
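Agonist mode: compounds alone added to overnight-plated D2 PathHunter cells for 90 min at 37 C, with 57 uM final dopamine (EC100) defining full response. Beta-arrestin recruitment detected by chemiluminescent reagent, read after 1 h at ambient temperature.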
D2 PAM = potentiates the human D2 dopamine receptor allosterically | P14416 | DiscoveRx D2 beta-arrestin cells, luminescence, 90 min; 100% = 57 uM dopamine signal | potentiation, % (no concentration beside the values) | 360,000 compounds, 0.23% hits | AID 624464; active = potentiation of 50% or more; inconclusive = 30% to 50%; inactive = 30% or less;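 also: compound concentration not given in the record; tested on top of an EC20 dose of dopamine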
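PathHunter D2 cells, attached overnight at 37 deg C, received compound in DMSO plus dopamine at EC20 (50 nM final) for 90 min at 37 deg C. Beta-arrestin recruitment was read as luminescence after 1 h with detection reagent at ambient temperature.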
TRPML1 ag = agonists of human TRPML1 channel | activation, % (concentration not given with the values) | Q9GZU1 | 410,000 compounds, 0.12% hits | AID 624414 | TRPML1-expressing cells, Ca2+ dye fluorescence, FDSS; host cell line not named in the record; reference of the full effect not given here; in the data active = activation above about 50%; inconclusive = about 30% to 50%; inactive = below about 30%; also: 0% is about no effect; the text of the record puts the active cut at 80%
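Agonist activity was taken from a 110 s kinetic Ca2+ dye read on the FDSS after pinning compounds onto TRPML1-DL cells. The cells were seeded at 1,500/well with Tet inducer, incubated about 16 h, then dye-loaded at room temperature.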
CtBP-E1A blk = blocks the CtBP interaction with E1A. AID 651724. 340,000 compounds, 0.49% hits. activity change, % (concentration not given with the values). AlphaScreen GST-E1A/His-CtBP binding, 1536-well; hits give low values; control for the full effect not named in the record; in the data active means activity change below about -65%; inconclusive means about -30% to -65%; inactive means above about -30%; also: % is scaled to controls: 0 for no effect and ±100 for the full control effect
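AlphaScreen with 125 nM GST-E1A and 125 nM His-CtBP (5X stocks) in Tris pH 8.0, 300 mM NaCl, BSA, Tween 20, TCEP. Compounds preincubated 2 h at 37 deg C, then glutathione donor/nickel acceptor beads added for 1 h at 37 deg C in dark.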
* = called active by the depositor; ? = inconclusive; · = not tested or not shown; & = joins results of further samples; [ ] = remark or other dose. Outcome played no part in choosing rows; 1.3% or so of the library scored in one or more.

SMILES	Six1-Eya2 inh	PINK1 modulator	D2 agonist	D2 PAM	TRPML1 ag	CtBP-E1A blk
COc1ccc(Br)cc1C(=O)N/N=C/c1ccc([N+](=O)[O-])cc1	6	14%	2.2	1	1.2	5
O=C1CC(N(O)c2ccccc2)C(=O)N1c1ccc(Cl)c(Cl)c1 (configuration not stated)	-12	1.5%	6.5	-10	-0.3	·
COc1ccc(C(=O)NCCc2nnc(SCC(=O)Nc3ccccc3)n2C)cc1	-1	-3.7%	-0.8	-21	0.5	-6
COc1cccc(-n2nnc3c(=O)n(Cc4ccc(F)cc4)cnc32)c1	-25	7.6%[38.3 µM]	-1.4	-7	1.8	?
CC(C)Sc1nc2c(c(=O)n(C)c(=O)n2C)n1Cc1ccc(Cl)cc1	-2	-1.4%	3.0	8	10	8
CCCCOC(=O)C(NC(=O)c1ccccc1)=C(C)C	0	-1.0%	-4.4	0	-0.5	8
Cc1c(C(=O)N2CCC2)oc2ccc(Br)cc12	3	1.9%	-4.4	0	0.0	2
CCOc1cc(C(=O)NCc2ccc3c(c2)OCO3)cc(OCC)c1OCC	-2	-0.7%	-3.0	-25	3.1	-6
CCOc1cc(C(=O)NC)cc(Br)c1OCc1ccccc1	-3	-0.6%	0.2	-6	1.1	4
CC(C)=CCN1CCN(Cc2cccnc2)CC1CCO (configuration not stated)	6	-0.6%	-2.7	-6	-0.8	0
COc1ccc(CCNC(=O)Cn2c(=O)n(-c3cc(F)ccc3F)c(=O)c3sccc32)cc1OC	-1	-0.5%	-0.1	19	1.4	·
CCOC(=O)C1=C(CP(=O)(c2ccccc2)c2ccccc2)NC(=O)NC1c1ccc(OC)cc1 (configuration not stated)	0	-1.5%	-0.8	-6	-0.5	0
Cc1cccc(NC(=O)CSCC(=O)N(C)Cc2c(F)cccc2Cl)c1	-1	1.2%	-5.9	-11	0.0	6
Cc1cccc(N(Cc2ccccc2)C(=O)c2ccccc2S(C)(=O)=O)c1	0	-0.6%	4.7	-9	3.4	-2
Cc1nnc(NC(=O)CSc2nccn2C)s1	7	-0.1%	0.0	5	0.9	4
CS(=O)(=O)Cc1ccc(C(=O)N(CCc2ccccc2)Cc2ccccc2)cc1	-5	-0.2%	-2.1	-12	-0.3	-9
COc1ccc(CNC(=O)[C@H](C)NC(=O)C2CCN(C(=O)[C@@H](N)Cc3ccccc3)CC2)cc1	11	-0.8%	-4.4	-10	·	-14
Cc1ccc(/C=C2\CCCC3=C2NC(=S)NC3c2ccc(C)cc2)cc1 (configuration not stated)	-3	11%	-3.9	-21	0.9	-11
CC(C(=O)N(C)Cc1cccc(F)c1)N1CCN(S(=O)(=O)c2ccc3c(c2)OCCCO3)CC1 (configuration not stated)	-3	-0.7%	0.9	-4	1.0	-18
Cc1c(C(=O)NCC(c2ccco2)N2CCCC2)oc2ccc(Cl)cc12 (configuration not stated)	-14	1.4%	1.7	-37	1.1	?
COc1ccc2nc(SCC(=O)Nc3ccccc3)[nH]c2c1	0	1.3%	0.0	-4	4.8	-5
Cc1c(C(=O)Nc2ccc(C(F)(F)F)cc2)sc2ncn(CC(=O)N3CCN(c4ccccn4)CC3)c(=O)c12	-5	0.7%	-3.0	-19	0.3	6
N#Cc1cc(-c2cccc(Cl)c2)c[nH]c1=O	0	-3.9%	-2.4	3	2.8	0
CC(C)Cn1nc(-c2ccccc2)c2ccccc2c1=O	3	5.1%	10	-11	2.6	-2
Cc1cc(C(=O)NNC(=O)/C=C/c2ccc(F)cc2)c(C)o1	6	7.3%	-1.2	6	-0.6	-1

Brought forward from above: four compounds, then new ones.
SMILES	Six1-Eya2 inh	PINK1 modulator	D2 agonist	D2 PAM	TRPML1 ag	CtBP-E1A blk
Cc1c(C(=O)Nc2ccc(C(F)(F)F)cc2)sc2ncn(CC(=O)N3CCN(c4ccccn4)CC3)c(=O)c12	-5	0.7%	-3.0	-19	0.3	6
N#Cc1cc(-c2cccc(Cl)c2)c[nH]c1=O	0	-3.9%	-2.4	3	2.8	0
CC(C)Cn1nc(-c2ccccc2)c2ccccc2c1=O	3	5.1%	10	-11	2.6	-2
Cc1cc(C(=O)NNC(=O)/C=C/c2ccc(F)cc2)c(C)o1	6	7.3%	-1.2	6	-0.6	-1
Cc1ccc(C(=O)NCCCN2CCOCC2)cc1Cl	1	1.1%	7.3	18	·	·
COc1ccccc1C(=O)Nc1nnc(-c2ccccc2)s1	-7	4.1%	-0.9	10	·	·
COc1cc(C(=O)Nc2nnc(S(=O)(=O)N3CCCCCC3)s2)cc(OC)c1OC	-10	1.9%	2.1	-5	-1.4	0
O=S1(=O)CCOCCN1Cc1ccccc1	-2	1.4%	0.4	4	-0.2	8
OCCCn1c(C2CCCN2c2nc(-c3ccc(Cl)cc3)cs2)nc2cc(Cl)c(N3CCCCC3)cc21 (configuration not stated)	-7	7.7%	-3.0	0	-0.4	0
CCN(CC)C(=O)C1=C(C)N(CCCN2CCCC2=O)C(=O)C(CC(=O)NCc2cccs2)C1 (configuration not stated)	-2	1.0%	-7.2	-1	-0.4	4
CC12CCC(C(=O)Nc3ccccc3)(C(Br)C1=O)C2(C)C (configuration not stated)	3	1.2%	-1.2	-7	0.4	0
C[C@]1(C(=O)O)C=C[C@@H](Cc2ccccc2)N1C(=O)c1ccccc1	14	0.3%	0.7	-5	-0.1	0
O=C1C2C3CCC(C3)C2C(=O)N1CNc1ccc(F)cc1 (configuration not stated)	0	-1.8%[38.3 µM]	-0.4	-5	0.1	4
COc1cccc(NC(=O)CN(C)C(=O)c2cc(S(=O)(=O)N3CCCCC3)ccc2Cl)c1	-2	0.6%	-0.6	-12	-0.7	1
COCCCNC1CS(=O)(=O)CC1O (configuration not stated)	6	0.2%	-7.3	4	-0.4	4
COn1c(-c2ccccc2)nc2ncccc21	-1	2.7%	-1.6	4	0.1	-4
CCOC(=O)c1ccc(NC(=O)CN2CCN(Cc3ccccc3)CC2)cc1	-10	1.6%	-4.4	-8	-0.1	-7
O=C(COC(=O)C12CC3CC(CC(C3)C1)C2)NCCc1ccccc1	5	-2.7%[38.3 µM]	-1.3	-15	-0.5	22
O=C(O)c1ccc(N2CCCCS2(=O)=O)cc1	-7	0.0%	-3.2	-3	-0.9	-1
COc1ccc(Nc2nc(-c3sc(C)nc3C)cs2)c(OC)c1	-29	-1.7%	-0.5	-1	4.3	-23
CCn1c(SCC(=O)N(C)CC(=O)Nc2cccc(OC)c2)nnc1-c1ccco1	2	4.9%	-5.0	-12	-0.2	0
Cc1ccc(C(C)C)c(OCC#CCN2CCOCC2)c1	-3	7.8%	-1.2	-4	1.5	10
CC1CCN(S(=O)(=O)c2ccc(F)c(C(=O)O)c2)CC1	3	-0.8%	-4.4	0	-0.3	1
O=c1/c(=C/c2ccccc2)sc2nnc(-c3cccs3)n12	-6	6.9%	-2.5	-3	0.4	-20
CCC(C)(C)NC(=O)C(c1ccc(F)cc1)N(Cc1ccco1)C(=O)CCC(=O)Nc1ccccn1 (configuration not stated)	1	0.6%	-4.1	-13	0.2	-1
CC(=O)Cc1cc(=O)c2c(C)cc(O)c(C3OC(CO)C(O)C(O)C3O)c2o1 (configuration not stated)	8	1.3%	2.3	1	0.0	7
CSCCNC(=O)c1ccc2nc(C3CCCCC3)oc2c1	3	0.6%	-2.3	-3	-1.0	6
O=C(Cn1cc(COc2ccccc2[N+](=O)[O-])nn1)c1ccc(O)cc1	-5	1.3%	-2.4	0	-0.9	-10
Cc1ccc(OCC(=O)Nc2ccc(O)c(-c3nc4ccccc4o3)c2)cc1	9	-2.4%	0.7	-11	-0.3	4
The list continues.
SMILES	Six1-Eya2 inh	PINK1 modulator	D2 agonist	D2 PAM	TRPML1 ag	CtBP-E1A blk
CC1CC(C)CN(c2ccc([N+](=O)[O-])cc2-c2nn[nH]n2)C1 (configuration not stated)	36	0.7%	-2.8	-7	0.9	-3
CCCN(C(=O)c1cc(S(=O)(=O)N2CCCCCC2)ccc1OC)C1CCS(=O)(=O)C1 (configuration not stated)	7	1.6%	-2.0	-24	-0.1	-2
Cc1cc(NC(=O)C2CC(=O)N(c3ccc(Cl)cc3)C2)no1 (configuration not stated)	-5	-0.1%	0.2	-6	0.4	0
S=C(Nc1ccc(Cl)cc1)N(CCCN1CCOCC1)Cc1cccs1	4	0.7%	-3.7	-12	0.7	-4
CCC[C@@H]1CCCO[C@@](C(=O)NCc2cc(C)n(C)n2)(C(F)(F)F)C1	-21	3.5%	0.9	-40	-0.8&1.1	-12
CCCn1c(N)c(C(=O)CSc2nnc(Cc3cccs3)n2C2CC2)c(=O)n(C)c1=O	-9	-1.3%	-3.9	1	-0.2	·
CC(=O)c1ccc(-n2cc(C#N)c(=O)[nH]c2=O)cc1	2	1.6%	-0.4	-9	3.1	·
COC(=O)c1sccc1NC(=O)c1ccc(OC)c([N+](=O)[O-])c1	-4	8.4%	-4.0	-20	-1.0	-1
CCN1CCN(CCCNC(=O)c2ccc(/C=C3/Sc4ccccc4N(Cc4ccccc4F)C3=O)cc2)CC1	-1	-1.3%	-0.3	-9	0.0	-6
c1nc(N2CCCCC2)c2[nH]cnc2n1	3	1.1%	-2.3	-3	-0.5	-3
COCCNC(=O)C1CCCN(C(=O)c2csc3ccccc23)CC1 (configuration not stated)	0	0.7%	-0.6	-9	3.8	9
c1cncc(-c2nc3ccccn3c2Nc2ccc3c(c2)OCCO3)c1	-3	0.1%	1.2	-1	1.0	-26
CCN(CC)S(=O)(=O)c1ccc(N2CC(C(=O)NCCc3c[nH]c4ccccc34)CC2=O)cc1 (configuration not stated)	-1	2.9%	-1.3	4	-0.9	-2
CCn1nnnc1SCC(=O)Nc1ccc(N(C)C)cc1	0	1.3%	2.5	4	-0.7	5
Cc1c(C(=O)N2CCOCC2)cc(C(C)(C)C)n1-c1ccccc1	-2	0.8%	0.6	-16	1.0	-6
O=C(O)c1ccc(C=NN2CCCCCC2)cc1	-4	-5.1%	-4.4	-14	-0.3	10
N/C(=N\OC(=O)Cc1ccc(-c2ccccc2)cc1)c1ccncc1	15	3.3%	7.5	1	0.8	4
Cc1cc(=O)n(-c2ccc(C(=O)O)cc2)[nH]1	-15	0.4%	-5.7	-6	-0.6	9

Taken from above:
Reading of c1cncc(-c2nc3ccccn3c2Nc2ccc3c(c2)OCCO3)c1 in D2 agonist: 1.2
Reading of CCC(C)(C)NC(=O)C(c1ccc(F)cc1)N(Cc1ccco1)C(=O)CCC(=O)Nc1ccccn1 (configuration not stated) in PINK1 modulator: 0.6%
Reading of O=C1C2C3CCC(C3)C2C(=O)N1CNc1ccc(F)cc1 (configuration not stated) in CtBP-E1A blk: 4
Reading of Cc1c(C(=O)NCC(c2ccco2)N2CCCC2)oc2ccc(Cl)cc12 (configuration not stated) in TRPML1 ag: 1.1

Laid out differently: results already given.
Values in the order – Six1-Eya2 inh, PINK1 modulator, D2 agonist, D2 PAM, TRPML1 ag, CtBP-E1A blk
> CC(=O)c1ccc(-n2cc(C#N)c(=O)[nH]c2=O)cc1
→ 2, 1.6%, -0.4, -9, 3.1, ·
> COC(=O)c1sccc1NC(=O)c1ccc(OC)c([N+](=O)[O-])c1
→ -4, 8.4%, -4.0, -20, -1.0, -1
